# KCNQ2 block = KCNQ2 channel blockers in CHO-K1 cells – cell-based, FluxOR thallium flux, B-score, primary screen (AID 2156) | B-score at 10 µM | 310,000 tested, 1.1% active | 20 min; active compounds read low; only compounds with negative scores are shown here; some inactives read as strong as hits;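 active = fluorescence ratio B-score at most minus 3 library SDs, with starting brightness B-score within 2 library SDs, cut at about -5.5 in these data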
# Target sequence (O88943 whole entry, looked up): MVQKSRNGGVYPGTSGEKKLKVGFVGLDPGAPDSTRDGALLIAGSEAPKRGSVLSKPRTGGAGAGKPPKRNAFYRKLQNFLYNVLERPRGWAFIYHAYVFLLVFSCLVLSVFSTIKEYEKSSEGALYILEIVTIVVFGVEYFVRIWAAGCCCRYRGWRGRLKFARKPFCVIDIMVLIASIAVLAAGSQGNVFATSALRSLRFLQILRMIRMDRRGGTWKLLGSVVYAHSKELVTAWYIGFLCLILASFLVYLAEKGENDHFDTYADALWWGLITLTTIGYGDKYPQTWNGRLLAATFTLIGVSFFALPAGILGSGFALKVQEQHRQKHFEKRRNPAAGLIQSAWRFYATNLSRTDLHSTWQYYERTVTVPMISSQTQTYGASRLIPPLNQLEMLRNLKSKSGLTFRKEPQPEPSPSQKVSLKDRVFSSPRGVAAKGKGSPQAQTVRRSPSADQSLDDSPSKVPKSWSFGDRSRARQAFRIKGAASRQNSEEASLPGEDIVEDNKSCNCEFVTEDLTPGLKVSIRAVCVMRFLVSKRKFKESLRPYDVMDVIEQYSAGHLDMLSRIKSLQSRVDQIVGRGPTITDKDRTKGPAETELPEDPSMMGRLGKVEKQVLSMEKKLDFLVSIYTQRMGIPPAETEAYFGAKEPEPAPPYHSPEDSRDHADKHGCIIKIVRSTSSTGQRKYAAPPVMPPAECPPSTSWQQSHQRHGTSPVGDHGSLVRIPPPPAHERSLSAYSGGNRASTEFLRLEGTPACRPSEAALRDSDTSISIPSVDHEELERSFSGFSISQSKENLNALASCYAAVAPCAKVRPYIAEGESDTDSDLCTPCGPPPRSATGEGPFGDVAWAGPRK
# KCNQ2 block baseline = second read-out of KCNQ2 block, no call of its own (marks repeat the call); B-score; measured here: initial fluorescence intensity artifact check;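 brightness before thallium and not channel activity; 0 = typical well and far values either way flag optical interference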
# An asterisk follows results filed as active; i = inactive. Not all compounds are listed, so the mix of outcomes need not match the whole.
KCNQ2 block | KCNQ2 block baseline | smiles
i | -0.97 | CCCCCCSc1ccc([C@H]2N[C@@](C)(C(=O)OC)[C@H]3C(=O)N(CC)C(=O)[C@@H]23)cc1
i | 1.1 | Cc1cc(C)c(Cn2cnc3ccccc32)c(C)c1
i | -0.33 | COc1cc(NC(=S)N2CCN(Cc3ccccc3)CC2)cc(OC)c1
i | -0.17 | CCOC(=O)c1cccc(Nc2nc(-c3cccnc3)nc3ccccc23)c1
i | 2.3 | CCC(OC(=O)c1ccco1)C(=O)NCc1ccc(C)cc1 (stereo unspecified)
i | -1 | CC1=NCCN1S(=O)(=O)c1c(C(C)C)cc(C(C)C)cc1C(C)C
i | -1.8 | O=C(CN1CCC(O)(c2ccc3c(c2)OCO3)CC1)OC1CCCCC1
i | -0.98 | CCCNC(=O)N1CCN(c2ncccn2)CC1
i | 0.5 | CCOC(=O)c1cnc(SCC(=O)Nc2cc(OC)ccc2OC)nc1N
i | -0.82 | CCOC(=O)c1c(C)oc2c1c1c(c3ccccc32)OCN(CCCC(=O)O)C1
i | -0.3 | CCC(CC)C(=O)Nc1c(C(=O)N2CCN(c3ccccc3)CC2)oc2ccccc12
i | 1.1 | COc1cccc(C(C(=O)NC2CCCCC2)N(C(=O)Cc2cccs2)c2ccc(-n3cnnn3)c(OC)c2)c1 (stereo unspecified)
i | -0.44 | CCCc1cc(=O)oc2cc(OCC(=O)NCCc3ccc(S(N)(=O)=O)cc3)ccc12
i | -0.93 | CCCCOC(=O)CSCC(=O)N1N=C(c2cccs2)CC1c1ccc(F)cc1 (stereo unspecified)
i | -0.06 | CCCc1cc(C(=O)N2CCCC(C(=O)c3ccc(Cl)cc3)C2)n(C)n1 (stereo unspecified)
i | -0.76 | C=C(C)CSc1nnc([C@@H](NC(=O)OC(C)(C)C)C(C)CC)o1 (stereo partly specified)
i | 1.4 | CS(=O)(=O)N1CCC(Oc2ccccc2C(=O)NC2CCOC2)CC1 (stereo unspecified)
i | 0.51 | Cc1occc1C(=O)NNC(=O)c1ccccc1Br
i | 1.7 | CN(C)c1nc(N)nc(-c2ccco2)n1
i | -0.24 | COc1ccc(CN=C2NC(=O)CC(C(=O)Nc3ccc(Cl)cc3)S2)cc1 (stereo unspecified)
i | -0.75 | COc1ccc(NC(=O)c2cccs2)cc1C(=O)N1CCN(c2ccccc2)CC1
i | 0.25 | O=C(NNS(=O)(=O)c1cccc(Cl)c1)c1cc(-c2ccc(F)cc2)nc2ccccc12
i | 0.89 | S=C(c1ccc(-c2cc(Cl)ccc2Cl)o1)N1CCOCC1
i | 0.64 | COc1cc(OC)c(NC(=O)c2cncn2-c2ccc(F)cc2)cc1Cl
i | 0.22 | Cc1ccc(-c2ccc(=O)n(CC(=O)NCCN3CCCCC3C)n2)cc1 (stereo unspecified)
i | 0.45 | Cc1sc2ncnc(N3CCN(CCOc4ccc(Cl)cc4)CC3)c2c1C
i | 0.64 | CCOC(=O)c1c(/N=C/c2ccccc2O)sc2c1CCC2
i | -1.8 | O=C(Nc1ccc(S(=O)(=O)Nc2nccs2)cc1)C1=NN(c2ccccc2)C(=O)CC1
i | 0.89 | N=C(N)N=Nc1c(O)[nH]c2ccc(Br)cc12
i | 0.78 | COc1ccc(C(=O)C2CCCCC2=O)cc1 (stereo unspecified)
i | -0.26 | Cc1cc(C)c2c(C)[nH]nc2n1
i | -0.22 | COc1cccc(CN2CC(C(=O)NCCN3CCOCC3)CCC2=O)c1 (stereo unspecified)
i | -0.9 | COc1ccc(CCNc2cc(C)[nH]c(=O)c2)cc1OC
i | 0.4 | O=C(OCC(=O)N1CCc2ccccc21)c1cccnc1Cl
i | 0.79 | O=C1CN(C(=O)c2ccc(Br)o2)C(c2ccccc2)c2cc(Br)ccc2N1 (stereo unspecified)
i | -0.33 | CN(C)c1ccc(N2C(=NC(=O)c3ccccc3)SC3CS(=O)(=O)CC32)cc1 (stereo unspecified)
i | -0.89 | Nn1c(SCc2ccc(Br)cc2)nnc1-c1ccccn1
i | -0.01 | CCOc1ccc(C(C)NC(=O)c2cc(=O)[nH]c3ccccc23)cc1OCC (stereo unspecified)
i | -1.6 | Cc1cnc(C(=O)OCC(=O)N=c2sccn2Cc2ccccc2Cl)cn1
i | -1.6 | CC(=O)Oc1ccc(C(=O)[C@H]2[C@H]3C(=O)N(c4ccccc4)C(=O)[C@H]3[C@@H]3C=CC=NN32)cc1
i | 0.02 | CS(=O)(=O)N(Cc1ccc(Cl)cc1)c1ccc(C(=O)N2CCN(c3ccccc3)CC2)cc1
i | -0.03 | Cc1ccccc1C(=O)N1CCC(C(=O)Nc2nccs2)CC1
i | -0.99 | C=CCn1c(SCC(=O)c2ccc(O)c(O)c2)nnc1-c1cccnc1
i | -0.04 | Cc1csc(=O)n1CCC(=O)OCC(=O)NNC(=O)c1ccccc1
i | -0.71 | CCN(CC)CCNC(=O)c1ccc(NC(=O)C2CCN(c3ncnc4sc(C)c(C)c34)CC2)cc1
i | 1.5 | Cc1cc(C)n(CC2CC(=O)N(c3ccc(Cl)c(Cl)c3)C2=O)n1 (stereo unspecified)
i | 0.18 | Cc1ccccc1NC(=O)/C(=C/c1ccccc1)c1ccccc1
i | 2.2 | CC(C)CCN1CCC(n2nccc2NC(=O)c2ccc3c(c2)OCO3)CC1
i | -0.1 | Cc1ccc(C)n1-c1nn(S(=O)(=O)c2cccc3cccnc23)c2cccc(F)c12
i | -0.16 | Cc1cc2nc(-c3ccc(SCC(=O)Nc4ccc5c(c4)OCCO5)nc3)[nH]c2cc1C
i | 0.41 | Cc1cc(C)nc(-n2nc(C)cc2NC(=O)CN2CCc3ccccc3C2)n1
i | 0.39 | CCCN1C(=O)/C(=N\OCC(=O)NCC(F)(F)F)c2ccccc21
i | 2.4 | CCc1ccc(-c2nc(CSCC(=O)NCc3ccco3)c(C)o2)cc1
i | -0.07 | COc1ccc(-c2nc(Cn3c(SCc4ccccc4F)nc4ccncc43)c(C)o2)cc1
i | 1.1 | Cc1cccc(N2CCN(C(=O)CCNS(=O)(=O)c3ccc4c(c3)oc(=O)n4C)CC2)c1C
i | 1.2 | Cc1ccc(CNC(=O)CSc2ncc(C(=O)Nc3ccccc3)c(=O)n2C)cc1
i | -0.23 | CC1N=C(N)C(c2nc3ccccc3n2C)=C1O (stereo unspecified)
i | 0.04 | Cc1cc2nc(CSc3ccc(Cl)cc3)cc(=O)n2[nH]1
i | -1.7 | O=C(NC(=S)NNC(=O)c1ccccc1[N+](=O)[O-])c1ccc(Br)cc1
i | -0.36 | O=[N+]([O-])c1cc(C(F)(F)F)ccc1NN=C1CCCC1

# Going on with the list.
KCNQ2 block | KCNQ2 block baseline | smiles
i | -1.1 | O=C(/C=C/c1ccc(F)cc1)NC(=S)N1CCN(c2ccccn2)CC1
i | 1.5 | COc1cc2sc3ccc(-c4ccc(N(C)C)nc4)cc3c(=O)c2cc1OC
i | 0.68 | O=C(O)c1cccc(-c2ccc(/C=N/Nc3ccc([N+](=O)[O-])cc3)o2)c1
i | -1.5 | COCCC(=O)N1CCC(Oc2ccc(C(=O)N(C)C3CCCCC3)cc2)CC1
i | 0.94 | COc1ccc(N(C(=O)c2cccc(OC)c2OC)C2C=CS(=O)(=O)C2)cc1 (stereo unspecified)
i | -1.5 | O=C(Cc1ccccc1)c1nc2ccccc2s1
i | 0.74 | O=C(NCCCCCCNC(=O)c1ccc(Br)s1)c1ccc(Br)s1
i | 0.71 | Cc1cc2nc(C)c(=O)n(C)c2cc1C
i | -1.5 | O=C(CCCN1C(=O)c2cccc3cccc(c23)C1=O)NC1CCS(=O)(=O)C1 (stereo unspecified)
i | -0.31 | Cc1ccc(NC(=O)CSc2nnc(-c3cnccn3)n2Cc2ccco2)cc1
i | -0.21 | O=C(OCCCOc1ccc(F)cc1)c1ccc(O)cc1O
i | 0.18 | O=C(COC(=O)C1CC1)Nc1ncc(C(F)(F)F)cc1Cl
-8.7* | -1.2* | C=C(C)c1cccc(C(C)(C)NC(=O)N(Cc2ccccc2)Cc2ccco2)c1
i | 1.6 | CS(=O)(=O)c1ccc(NCCc2ccc(S(N)(=O)=O)cc2)c([N+](=O)[O-])c1
i | 0.81 | CC(C)CNc1nnnc2c1sc1nc(N3CCOCC3)c3c(c12)CC(C)(C)SC3
i | -2.3 | COc1ccc(NC(=O)C2OCCc3ccccc32)c(OC)c1 (stereo unspecified)
i | -0.27 | COc1ccccc1CN1CCN(C(=O)c2cccc3ccccc23)CC1
i | -1.1 | O=S1(=O)NC(=NCCOCCO)c2ccccc21
i | -1.2 | COc1cc(C(=O)NCC(c2cccs2)N2CCOCC2)c([N+](=O)[O-])cc1OC (stereo unspecified)
i | -1.4 | O=C(NCC1CCN(C(=O)c2ccc([N+](=O)[O-])cc2)CC1)c1ccc([N+](=O)[O-])cc1
i | -0.75 | CCc1nc(SCc2ccc(Cl)cc2)n[nH]1
i | 1.6 | CCOc1ccccc1CNS(=O)(=O)c1csc(C(N)=O)c1
i | -0.59 | COC(=O)C1=C(C)NC(=S)N(C(C)=O)C1c1ccccc1 (stereo unspecified)
i | -0.03 | COc1ccc(CCNC(=O)COC(=O)c2cc(OC)c(OC)cc2OC)cc1OC
i | 0.89 | COc1cccc(C(=O)N2CCN(c3ccc(N4CCOCC4)nn3)CC2)c1
i | 0.02 | Cc1ccc(NC2=NC3(CCCCC3)N=C(N)N2)c(C)c1
i | -0.45 | O=C(C1CCC1)N1CCc2cc(S(=O)(=O)NC3CCCC3)ccc21
i | -0.32 | COc1ccc(OC)c(S(=O)(=O)NC2CC(=O)N(c3ccc(C)c(C)c3)C2)c1 (stereo unspecified)
i | 0.98 | CC1CCCC(C)N1C(=O)c1cc(-c2cccs2)on1 (stereo unspecified)
i | -0.75 | O=C(NCc1nnc(SCC(=O)N2CCCc3ccccc32)o1)c1ccco1

# 6 compounds out of the list, sorted by SMILES length, highest first:
KCNQ2 block | KCNQ2 block baseline | smiles
i | -1.4 | O=C(NCC1CCN(C(=O)c2ccc([N+](=O)[O-])cc2)CC1)c1ccc([N+](=O)[O-])cc1
i | -1.2 | COc1cc(C(=O)NCC(c2cccs2)N2CCOCC2)c([N+](=O)[O-])cc1OC (stereo unspecified)
i | -0.03 | COc1ccc(CCNC(=O)COC(=O)c2cc(OC)c(OC)cc2OC)cc1OC
i | 1.6 | CCOc1ccccc1CNS(=O)(=O)c1csc(C(N)=O)c1
i | -2.3 | COc1ccc(NC(=O)C2OCCc3ccccc32)c(OC)c1 (stereo unspecified)
i | 0.98 | CC1CCCC(C)N1C(=O)c1cc(-c2cccs2)on1 (stereo unspecified)

# More compounds:
KCNQ2 block | KCNQ2 block baseline | smiles
-8.8* | -0.93* | CCN(CCCn1c(SCC#N)nc2ccccc2c1=O)c1ccccc1
i | -1.4 | Cc1ccccc1NC(=S)N/N=C/c1ccc(O)cc1O
i | 5.6 | O=C(Nc1cc(Cl)ccc1O)C1CC(c2ccccc2O)=NO1 (stereo unspecified)
i | -0.53 | Clc1nc(CN2CCOCC2)nc2sc3c(c12)CCC3
i | -1.8 | C/C(N)=C(/C#N)C(=O)COC(=O)c1cc(-c2ccccc2)nc2ccc(Br)cc12
i | 0.08 | N#Cc1cnn(-c2nc3sc4c(c3c(=O)[nH]2)CCCC4)c1N
i | 0.28 | CC(C)N(C(=O)Cn1c(-c2cccnc2)ccc(C#N)c1=O)C(C)C
i | 0.47 | Cn1c(=O)[nH]c(=O)c2c1nc(Sc1ncccn1)n2CCCc1ccccc1
i | 1 | O=C(/C=C/c1ccc2c(c1)OCCO2)c1ccccc1
i | 0.31 | O=C(CN(C(=O)CNS(=O)(=O)c1ccc(F)cc1)c1ccccc1F)NCc1ccco1
i | 0.29 | CCC(C)NC(=O)c1cn(CC)c2ccc(S(=O)(=O)N3CCCCCC3)cc2c1=O (stereo unspecified)
i | -1.4 | Cc1cc(C)c(N2CCN(S(=O)(=O)N3CCCCCC3)CC2)c(C)c1
i | 0.76 | CC1=CCC2C(=O)N(c3ccc4ccccc4n3)C(=O)C2C1 (stereo unspecified)
i | 0.23 | COc1ccc(C)cc1NC(=O)C1CCN(C(=O)C2CC(=O)N(c3ccc(C)cc3)C2)CC1 (stereo unspecified)
i | 0.22 | N=C1/C(=C/c2cccn2Cc2ccc(F)cc2)C(=O)N=C2SC=CN12
i | -0.74 | CC1(C)CC(=O)c2sc(NS(=O)(=O)c3ccc([N+](=O)[O-])cc3)nc2C1
i | 1.6 | CC1(C)Cc2c(cnn2-c2ccccc2)C(NC(=O)CCN2CCCCO2)C1 (stereo unspecified)
i | -1.4 | O=C(O)c1ccc(-c2ccccn2)s1
i | -0.04 | COc1ccc(C(=O)NC(C)c2nnc(SCc3ccc(Cl)c(Cl)c3)n2C)cc1 (stereo unspecified)
i | -0.16 | Cc1ccc(C)c2[nH]c(=O)c(CN(Cc3ccco3)S(=O)(=O)c3ccc4c(c3)OCCO4)cc12
i | -0.05 | COC(=O)[C@@]12CCCCN1[C@H](c1ccc(-c3cccc(Cl)c3)c(OC)c1)[C@H]1C(=O)N(C)C(=O)[C@H]12
i | -0.15 | CCc1ccc2c(CC(=O)Nc3nnc(C4CC4)s3)coc2c1
i | -0.25 | O=C(NCc1nc2ccccc2[nH]1)C1=C[C@H](c2ccc(C(F)(F)F)cc2)C[C@H](OCc2ccc(CO)cc2)O1
i | 0.67 | CC(=O)Oc1ccc2nc(-c3ccco3)oc(=O)c2c1
i | -0.07 | c1ccc(-c2nnc(CSc3nncs3)o2)cc1
i | -0.38 | Cn1c(CN2CCCCC2)nc2cc(NC(=O)c3cccc(Br)c3)ccc21
i | 0.03 | Cc1cccc(N(CC(=O)Nc2ccc(CC#N)cc2)S(C)(=O)=O)c1
i | 0.62 | Cc1ccc(O)c(CNc2nccs2)c1

# Shown with tabs: two of the compounds above.
Structure	KCNQ2 block	KCNQ2 block baseline
O=C(CCCN1C(=O)c2cccc3cccc(c23)C1=O)NC1CCS(=O)(=O)C1 (stereo unspecified)	i	-1.5
C=C(C)CSc1nnc([C@@H](NC(=O)OC(C)(C)C)C(C)CC)o1 (stereo partly specified)	i	-0.76

# Source: PubChem BioAssay (Johns Hopkins Ion Channel Center)
